LT uptake inh – inhibitors of anthrax lethal toxin internalization. Cells, anthrax lethal toxin internalization, FRET ratio (460/530). Potency, µM (top dose mostly 40 µM), without a hit: at the highest dose activity change, negative = inhibition, hits mostly inhibitors. hit rate 0.67% among 70,000; active = well fitted falling ratio curve with the 530 nm signal flat; inconclusive = other ratio curves, or a change in one channel alone; inactive = flat curves in the ratio and both channels; the % refers to the ratio; also: % is scaled to controls: 0 for no effect and ±100 for the full control effect; nearly all actives have a fitted effect of over 50% in size; tested in ME-180 cells; beta-lactamase reporter
Prx2 Sm inh – Schistosoma mansoni Prx2 inhibition | Potency, µM | hit rate 0.07% among 65,000 | S. mansoni Prx2 activity coupled to TGR/GSH (TGR is thioredoxin glutathione reductase), NADPH fluorescence loss, qHTS; some inactives read as strong as hits; active means full or partial inhibition curve with a strong effect at the top dose; inconclusive means weaker partial or single-point curve; inactive means no accepted curve; also: series up to 57 µM; many of its hits are not listed in these tables
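Prx2 activity was followed as the loss of NADPH fluorescence (ex 365/em 450 nm), read every 30 sec for 8 min after H2O2 start. The enzyme mix (50 nM Prx2, 25 nM TGR, GSH, NADPH; pH 7.4 phosphate buffer) was incubated with compound for 15 min at room temperature first.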
An asterisk follows results filed as active; ? = inconclusive; / = no result given; & = joins results of further samples; [ ] = dose if it differs, or a comment. Potency is read from the fitted curve at half-maximal effect.

SMILES | LT uptake inh | Prx2 Sm inh
CCc1cccc2c(C#N)cn(CC(=O)NCc3ccco3)c12 | -8% | >57
O=C(c1ccc(Br)s1)N1CCN(Cc2ccc3c(c2)OCO3)CC1 | / | >57
COc1ccc(Cl)cc1S(=O)(=O)n1ccnc1C(C)C | -10% | >57
COc1ccccc1CN(CC(=O)NCc1ccco1)C(=O)CNS(=O)(=O)c1ccc(C)cc1 | -5% | >57
Cn1nnnc1SCC(=O)Nc1c(Cl)cccc1Cl | -5% | >57
COCCNC(=O)C1(CC(C)C)C=CCN1C(=O)c1ccccc1 (stereo not given) | 4% | /
O=P(CCC(F)(F)F)(CCC(F)(F)F)CCC(F)(F)F | -7% | >57
O=C(Nc1ccc(-c2noc(-c3cccs3)n2)cc1)c1cccnc1 | ? | >57
NC(=O)Nn1c(CCC(=O)O)ccc1-c1ccc(Br)cc1 | -10% | >57
CC(C)c1ccc(OCc2nc(-c3ccccn3)no2)c(Br)c1 | ? | >57
O=C(NC1CCCCCC1)C1CCN(S(=O)(=O)c2cccc3cccnc23)CC1 | -15% | >57
Cc1ccc(C)c(Cn2c(=O)c3c(nc4n3CCN4Cc3ccco3)n(C)c2=O)c1 | 4% | >57
Cc1ccc(-c2csc(NC(=O)c3cccc(N4C(=O)CCC4=O)c3)n2)o1 | -8% | >57
Cc1ccc(S(=O)(=O)NCCCN2CCOCC2)c(C)c1 | 0% | >57
CN(C)c1ccc(-c2nc(N3CCNCC3)c3ccccc3n2)cc1 | -27% | >57
COc1ccc(C(=O)N2CCC3(CCCN(C)C3)CC2)cc1 | 8% | >57
COc1cccc(NS(=O)(=O)c2ccc3[nH]cc(C(=O)NCCC(C)C)c(=O)c3c2)c1 | 10% | >57
CCOC(=O)N1CCN(S(=O)(=O)c2c(C)nn(C)c2C)CC1 | 7% | >57
Cc1ccc(C)c(N2CCN(C(=O)CCCn3c(=S)[nH]c4cc5c(cc4c3=O)OCO5)CC2)c1 | ? | >57
Cc1cc(N2CCN(C3CCCCC3)CC2)nc2cccc(O)c12 | ? | >57
Cn1c(Cn2c(=O)sc3ccccc32)nnc1SCc1ccccn1 | -2% | >57
COc1ccc(-c2c3c(=O)n(C)c(=O)n(C)c3cn2Cc2ccccn2)cc1 | -15% | >57
CC(=O)c1c(C(C)=O)c(C)n(-c2ccc(C(=O)O)cc2)c1C | -10% | >57
CC1CCCCN1Cc1nc2c(c(=O)n(C)c(=O)n2C)n1Cc1c(F)cccc1Cl (stereo not given) | -8% | >57
CCC(=O)Nc1ccc2oc(-c3ccccc3Br)nc2c1 | 1% | /
Following part.
SMILES | LT uptake inh | Prx2 Sm inh
CC(=O)Oc1ccc2c(c1)c(C(C)=O)c(C)n2C | 20% | >57
CCn1c(-c2cccc(Cl)c2)n[nH]c1=S | -6% | >57
COC(=O)[C@@]1(Cc2ccc(OC)cc2)[C@@H]2C(=CC(=O)[C@H]2CC(=O)C(=O)N(C)C)CN1C(=O)c1ccccc1 | ? | >57
COCCNC(=O)C1CCCN(c2nn3c(=O)cc(C)nc3s2)C1 (stereo not given) | -10% | >57
Cc1ccc(-c2c(C)c(-c3ccc(F)cc3)nc(N)c2C#N)o1 | -23% | >57
CCn1c(SCCC(=O)O)nnc1-c1cccnc1 | -4% | >57
O[C@@H]1[C@@H](OCc2ccccc2)OC[C@H](O)[C@@H]1O | 0%[8 µM] | >57
COc1ccc(C(=O)CSc2nnc(COc3ccc(C#N)cc3)n2-c2ccccc2)cc1 | -10% | >57
COCCCNC(=O)c1ccccc1NS(C)(=O)=O | -1% | >57
O=C(NCc1ccc(N2CCCC2=O)cc1)c1cnccn1 | 1% | >57
Cc1cccc(N2CCN(C(=O)c3cc4c(=O)n(C)c5ccccc5c4n3C)CC2)c1C | -18% | >57
NC(=S)NCCC[C@@H](N)C(=O)O | 6% | >57
Cn1cc(C2=C(c3ccc(Cl)cc3Cl)C(=O)NC2=O)c2ccccc21 | ? | >57&>57
Cc1ccc(C(c2nnnn2CC2CCCO2)N2CCN(C(=O)c3ccco3)CC2)cc1 (stereo not given) | ? | >57
Cc1nc2cnc(N3CCNCC3)nc2n(Cc2ccc(F)cc2)c1=O | ? | >57
Brc1[nH]nc2ccccc12 | 2% | >57
Cn1cccc1CNC(=O)Nc1ccc(Cl)cc1 | 6% | >57
CCc1c(C(=O)NCc2ccccc2Cl)[nH]c(C)c1C(C)=O | -5% | >57
CCCCNC(=O)CC1N=C2c3ccccc3N=C(SCC(=O)Nc3ccccc3OC)N2C1=O (stereo not given) | 11% | >57
COCCCNC(=O)CN(c1ccc(OC)cc1)S(=O)(=O)c1ccc(NC(C)=O)cc1 | 13% | >57
C/C(Cl)=C/Cn1c(SCC(C)C)nc2c1c(=O)[nH]c(=O)n2C | -17% | >57
O=S(=O)(N1CCOCC1)N1CCCN(S(=O)(=O)N2CCOCC2)CC1 | 6% | >57
Cc1cc(C)c2c(N=CN(C)C)c(C(=O)N3CCN(c4ncccn4)CC3)sc2n1 | ? | >57
Cc1ccc(S(=O)(=O)N(Cc2nccn2C)C(C)C)cc1 | / | >57
O=C(COc1ccccc1)Nc1nc(-c2ccc(S(=O)(=O)N3CCOCC3)cc2)cs1 | ? | >57
Going on with the list:
SMILES | LT uptake inh | Prx2 Sm inh
c1ccc(Oc2ccc(-n3cnnn3)cc2)cc1 | 2% | >57
Cc1ccc(CCNC(=O)C2CCC(=O)N2C2CCCC2)cc1 (stereo not given) | 12% | >57
CCOC(=O)N1CCC(c2cc(=O)n3[nH]c(C)c(-c4ccc(F)cc4)c3n2)CC1 | ? | >57
Cn1c(SCC(=O)NCc2ccco2)nnc1-c1ccc(S(=O)(=O)N2CCOCC2)cc1 | ? | >57
CN(CCC#N)CC(=O)Nc1ccc(NC(=O)CN(C)CCC#N)cc1 | -10% | >57
COC(=O)C1=CNC=C(C(=O)OC)C1c1ccccc1Cl | ? | /
Cc1ccc(-c2nnc(SCC(=O)Nc3nc4c(s3)CCCC4)n2C)cc1 | -15% | >57
COc1cc2c(cc1OC)C(c1ccc3c(c1)OCO3)C1=C(CC(C)(C)CC1=O)N2 (stereo not given) | -16% | >57
Cc1nc2cnc(N3CCN(C)CC3)nc2n(CCC#N)c1=O | -19% | >57
COC(=O)c1ccc(C)c(NS(=O)(=O)c2ccc3c(c2)OCCO3)c1 | ? | /
COCCN1Cc2cccc(C(=O)Nc3ccc(S(=O)(=O)N4CCCCCC4)cc3)c2C1=O | -1% | >57
COc1ccccc1N1CCN(CCCCNC(=O)c2ccc(-c3ccc(C(C)=O)cc3)cc2)CC1 | ? | >57
O=C(CSc1nc(O)cc(=O)n1-c1ccccc1)N1CCCCC1 | 23% | >57
Cc1occc1C(=O)Nc1cccc(Cn2cccn2)c1 | -2% | >57
COc1ccccc1C(=O)Nc1cccc(N(C)S(C)(=O)=O)c1 | -5% | >57
Cc1ccccc1N(CC(=O)Nc1ccccc1C(=O)O)S(C)(=O)=O | -4% | >57
COc1cc2cc(CN(Cc3nnnn3C3CCCC3)C3CCCC3)c(=O)[nH]c2cc1OC | -1% | >57
Cc1cc2c(c(=O)n1C)C(Cc1ccccc1)C(C#N)=C(N)O2 (stereo not given) | ? | /
CC(C)c1nc(SCc2c(F)cccc2Cl)c2c(=O)n(C)c(=O)n(C)c2n1 | ? | >57
CC1=C(C(=O)NCc2ccco2)C2(CCC(C)CC2)OC1=O (stereo not given) | -3% | >57
CC(C)(C)NC(=O)Cn1cc(C#N)c2cc(Br)ccc21 | / | >57
CCSc1nnc(-c2ccccc2NC(C)=O)c(=O)[nH]1 | 6% | >57
CCOC(=O)CN1C(=O)C(O)(CC(=O)c2cccc(OC)c2)c2ccccc21 (stereo not given) | -6% | >57
O=c1c2ccccc2c(/C=N/c2ncn[nH]2)c(O)n1Cc1ccccc1 | 12% | >57
O=C(C1CCC1)N1CCC(c2nc3c(nnn3Cc3c(F)cccc3Cl)c(=O)[nH]2)CC1 | -2% | >57
Continued:
SMILES | LT uptake inh | Prx2 Sm inh
CCn1c(COc2ccccc2C)nnc1SCC(=O)Nc1ccc2c(c1)OCCO2 | -10% | >57
O=C(CC(SCCO)c1ccc2c(c1)OCO2)c1ccco1 (stereo not given) | ? | >57
CCCc1cc(=O)[nH]c(SCC(=O)N(C)Cc2ccccc2)n1 | 11% | >57
CC1CCCCN1C(=O)c1cc(F)c(F)cc1Cl (stereo not given) | -16% | >57
O=C(NCCCN1CCOCC1)c1cc(-c2ccc3c(c2)OCO3)nc2ccccc12 | -3% | >57
CCC(=O)Nc1nnc(Cc2ccccc2)s1 | -3% | >57
CCOC(=O)C1CCN(C(=O)CN(c2ccc(OC)cc2)S(=O)(=O)c2c(C)nn(C)c2C)CC1 | 10% | >57
Cc1ccc(C)c(CSc2nnc(CCN)o2)c1 | -3% | >57
O=C(NCC(=O)N(c1ccc2c(c1)OCCO2)C(C(=O)NC1CCCC1)c1ccco1)c1ccco1 (stereo not given) | ? | >57
CCOc1ccccc1NC(=O)CCCc1nc2ccccc2c(=O)[nH]1 | -9% | >57
Cn1c(=O)c2ncn(CC(=O)NCCOc3ccccc3)c2n(C)c1=O | -2% | >57
COC(=O)c1ccc(NC(=O)CSc2nnc(-c3ccncc3)n2N)cc1 | -13% | >57
CCOC(=O)CNC(=O)c1cn(C)c(=O)c2cc(OC)c(OC)cc12 | -7% | >57
COc1ccc2c(c1)OC(O)(C(F)(F)C(F)F)CC2=O (stereo not given) | ? | /
CCC(Sc1nc2n[nH]c(C)c2c(=N)n1-c1cccc(Cl)c1)C(=O)NCCOC (stereo not given) | ? | >57
O=C(Nc1ccc(S(=O)(=O)N2CCCC2)cc1)c1ccc(CN2CCOCC2)cc1 | -2% | >57
COC(=O)COc1ccc(S(=O)(=O)NCCC2=CCCCC2)cc1 | -21% | >57
CCOc1ccc(CC2S/C(=N/c3ccccn3)NC2=O)cc1 (stereo not given) | -5% | >57
CCOC(=O)N1CCN(c2ccc3nnnn3n2)CC1 | -9% | >57
O=C(CCCn1c(SCC(=O)NC2CCCCC2)nc2ccccc2c1=O)NCC1CCCO1 (stereo not given) | 8% | >57
Cc1cc(C(=O)CSC(C)c2nc3ccccc3c(=O)[nH]2)c(C)n1C (stereo not given) | 2% | >57
COc1ccc(-c2nnn(CC(=O)N(C3CCCC3)C(C)C(=O)NC3CCCC3)n2)cc1OC (stereo not given) | 26% | >57
Cc1cc(C)cc(N(CC(=O)NCC2CCCO2)C(=O)CCC(=O)Nc2cc(C)on2)c1 (stereo not given) | 14% | >57
CNC1=C(Br)C(=O)c2ccncc2C1=O | ? | /
O=C(NCC1CCCO1)C1CCN(CC2CCCCC2)CC1 (stereo not given) | -4% | >57
Next section.
SMILES | LT uptake inh | Prx2 Sm inh
O=C(c1n[nH]c(=O)c2ccccc12)N1CCN(c2ccccc2Cl)CC1 | -18% | >57
COC(=O)c1c(C)oc2ccc(NS(=O)(=O)c3cccs3)cc12 | -11% | >57
CSc1cccc(NS(=O)(=O)c2cccc3nsnc23)c1 | -5% | >57
[O-][n+]1onc2c1CCC1N(O)C(c3ccccc3)CC21O (stereo not given) | -5% | >57
N#Cc1cccc(NC(=O)N2CCC3(CC2)CCN(C(=O)c2csnn2)CC3)c1 | 8% | >57
CC(C)c1[nH]nc2c1C(C(C)C)C(C#N)=C(N)O2 (stereo not given) | -4% | >57
CC(C)(C)NC(=O)NC(=O)Cn1cc(C(F)(F)F)ccc1=O | 6% | >57
O=C(NCCO)c1ccc(-c2nnc(N3CCOCC3)c3ccccc23)cc1 | -2% | /
Cc1ccc(C2=NCCNC2=O)c(C)c1 | 7% | >57
Cc1ccccc1-n1c(=O)cc(N2CC(C)OC(C)C2)[nH]c1=O (stereo not given) | -3% | >57
O=C(c1ccco1)N1CCC2(CCCN(C(c3ccccc3)c3ccccc3)C2)CC1 | ? | >57

Screening results: PubChem BioAssay, National Center for Advancing Translational Sciences (NCATS)

These rows are one share of the data; rates above refer to the full screens.
